Screens from PubChem.
Vif A3G: inhibitors of Vif binding to APOBEC3G peptide, primary screen, biochemical, TR-FRET, GST-Vif 1-94, biotin-A3G peptide, dose response retest (AID 1117319) | one-dose inhibition, %; IC50 in µM for titrated hits | TR-FRET GST-Vif / biotin-A3G peptide binding; higher % means a stronger effect; test concentration not given here; strong numbers were not always called active | 260,000 compounds, 0.57% hits;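 active = above the screen mean plus three standard deviations and confirmed in dose response; inconclusive = results disagree or hit not tested in dose response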;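 note: Vif residues 1-94 fused to GST binding biotinylated APOBEC3G peptide 110-148; 0% = full assay without inhibitor and 100% = GST in place of GST-Vif; retest series ran down from 100 µM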
E coli growth: blocks Escherichia coli growth. OD600, 23 h; hits give low values. OD600 absorbance (test concentration not listed). 330,000 compounds, 0.21% hits;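 active = OD600 absorbance below the run mean of sample wells minus 3.6 SD, in any replicate, cut at about 0.56 in these data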;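 note: stock transfer was 300 nL into about 60 µL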
MLL AF4-AF9 inh: inhibitors of human MLL-AF4/AF9 interaction | inhibition, % at 10 µM | AlphaScreen, biotin-AF4 peptide binding to FLAG-AF9 | 350,000 compounds, 0.47% hits | P42568 | AID 651704;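 active = every replicate reaching a set inhibition limit, whatever the replicate mean, cut at about 25% in these data; inconclusive = mean inhibition reaches that limit but some replicates miss it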;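 note: 0% = plate neutral control median and 100% = total signal loss; the record names both 10 and 1 µM as test concentration; the first replicate is given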
UCH37 inh: blocks the human deubiquitinase UCH37 | Q9Y5K5 | purified proteasome/UCH37, Ub-AMC cleavage fluorescence | inhibition, % (no concentration beside the values) | 330,000 compounds, 0.33% hits | AID 588478;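 active = mean of two replicates above 20%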;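 note: 0% = compound-free wells with enzyme and 100% = wells lacking proteasome; stock transfer was 100 nL into about 20 µL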
Target sequence (Q9Y5K5 whole entry, looked up): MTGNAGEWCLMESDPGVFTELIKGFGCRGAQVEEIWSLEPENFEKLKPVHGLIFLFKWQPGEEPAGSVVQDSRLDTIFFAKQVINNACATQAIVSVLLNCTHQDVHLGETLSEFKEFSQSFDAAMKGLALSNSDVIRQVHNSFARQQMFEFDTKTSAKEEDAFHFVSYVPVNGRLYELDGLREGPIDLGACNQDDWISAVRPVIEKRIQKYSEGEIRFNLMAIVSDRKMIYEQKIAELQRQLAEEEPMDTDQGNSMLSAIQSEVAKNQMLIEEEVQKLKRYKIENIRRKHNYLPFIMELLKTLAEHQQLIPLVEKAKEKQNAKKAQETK
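Schedule: 30 min plus 25 min, room temperature / Material: human UCH37 within purified proteasomes / Technique: AMC fluorescence intensity at 355/460 nm / Buffer or medium: pH 7.4 Tris-HCl (50 mM) with ovalbumin, ATP-MgCl2, DTT / Controls: wells without proteasome as full block, compound-free enzyme plus substrate as uninhibited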
HNF4A DNA FP: change in binding of human HNF4 alpha to DNA; HNF4a-FITC DNA binding, fluorescence polarization, 1 h; activity change, % at 10 µM; 360,000 compounds, 0.3% hits; AID 1224865; in the data active = activity change above about 30%, passing the limit was not always enough;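 note: controls were the assay level and a saturating level of protein; the project sought stronger binding though the title names inhibitors; some compounds called inactive have numbers as strong as hits; positive values seem to mean higher polarization but the record does not say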
Target sequence (P41235 whole entry, looked up): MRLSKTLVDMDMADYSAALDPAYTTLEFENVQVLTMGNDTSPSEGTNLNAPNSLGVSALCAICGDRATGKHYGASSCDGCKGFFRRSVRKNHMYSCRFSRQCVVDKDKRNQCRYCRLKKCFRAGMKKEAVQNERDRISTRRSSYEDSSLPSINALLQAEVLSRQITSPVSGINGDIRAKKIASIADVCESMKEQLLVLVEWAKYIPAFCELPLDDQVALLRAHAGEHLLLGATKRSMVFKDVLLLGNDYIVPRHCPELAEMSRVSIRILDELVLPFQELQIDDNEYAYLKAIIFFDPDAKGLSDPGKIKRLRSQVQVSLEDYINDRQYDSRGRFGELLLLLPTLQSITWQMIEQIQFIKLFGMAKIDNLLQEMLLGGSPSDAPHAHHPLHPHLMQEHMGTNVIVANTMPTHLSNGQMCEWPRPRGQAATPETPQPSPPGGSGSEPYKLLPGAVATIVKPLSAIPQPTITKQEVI
RanGTP-Impb inh: disruptors of Ran-importin-beta complex formation – biochemical, FRET, CFP-Ran, YFP-importin-beta, homogeneous, primary screen; cell-free CFP-Ran/YFP-importin-beta FRET ratio; inhibition, % (no concentration beside the values); 300,000 compounds, 1.1% hits; AID 2216;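 active = most replicates above 15%; inconclusive = exactly half above 15%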;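 note: 0% = DMSO wells and 100% = Ran loaded with GDP instead of GTP; wells of about 40 µL received 100 nL stock; the first replicate is given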
FGF22 binding: binders of recombinant human FGF22 by thermal shift; Q9HCT0; SYPRO orange fluorescence; percent of sucrose octasulfate shift, DMSO zero; calls only at 9.99 µM; 340,000 compounds, 1.5% hits; AID 651658;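 active = melting point raised past a set limit in the mean and every replicate; inconclusive = no clear call; three in four hits are not shown here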
Target sequence (Q9HCT0 whole entry, looked up): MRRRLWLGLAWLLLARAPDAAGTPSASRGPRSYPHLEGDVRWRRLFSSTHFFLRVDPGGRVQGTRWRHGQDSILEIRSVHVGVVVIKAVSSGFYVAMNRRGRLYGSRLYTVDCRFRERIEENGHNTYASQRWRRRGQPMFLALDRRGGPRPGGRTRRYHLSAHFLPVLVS
Numbers without * were called inactive; i = inactive; u = inconclusive; x = not tested or not shown. Not all compounds are listed; the hit share may differ from the screen's.

SMILES	Vif A3G	E coli growth	MLL AF4-AF9 inh	UCH37 inh	HNF4A DNA FP	RanGTP-Impb inh	FGF22 binding
N#Cc1ccccc1NS(=O)(=O)c1cc2c3c(c1)CCN3C(=O)CC2	4%	0.62	-12	-0.6	-0.2	-0.1	i
CCOc1cc(S(=O)(=O)n2ccnc2)ccc1Br	18%	0.66	-4.8	3.3	-1.8	4.0	i
Cc1cc(C)n2c(SCc3ccc(Br)cc3)nnc2n1	14%	0.67	-2.0	4.0	0.9	8.6	i
CCc1ccccc1NC(=O)c1cccc(NC(=O)/C=C/c2ccco2)c1	11µM*	x	x	5.5	-1.2	-1.0	x
CN(CC(=O)Nc1ccc(Cl)c(C(F)(F)F)c1)C(=O)CCc1nc2ccccc2c(=O)[nH]1	-10%	0.66	-2.3	1.3	0.9	x	i
Cc1cc(C)cc(NC(=O)C2CCCN(S(=O)(=O)c3c(C)noc3C)C2)c1 (stereo not drawn)	x	0.7	-12	3.0	4.9	1.1	i
Cc1ccc(CCNC(=O)c2sc3nc4n(c(=O)c3c2C)CCC4)cc1	x	0.65	-6.1	5.2	-0.1	-1.0	i
Cc1c(C)n(Cc2ccc(Cl)cc2)c2ccc(C(=O)NCCN3CCOCC3)cc12	x	0.63	18	0.9	-3.2	0.4	i
CCC(C)/C(C)=N/NC(=O)c1ccc(CSc2nc3ccccc3s2)cc1 (stereo not drawn)	-8%	x	4.5	x	3.2	-4.4	i
CCC(C)c1ccc(NC(=S)NCCn2cc(Cl)cn2)cc1 (stereo not drawn)	4%	0.67	2.8	3.3	-3.5	-5.2	i
CC(NC(=O)COC(=O)Cc1ccccc1[N+](=O)[O-])c1ccccc1 (stereo not drawn)	-4%	0.66	-0.6	0.5	0.4	2.6	i
COc1cc(C=NNc2nc3c([nH]2)c(=O)n(C)c(=O)n3C)ccc1O	1%	0.7	-4.8	-1.4	-0.3	x	i
Cc1ncoc1C(=O)N1CCCC(C(=O)c2ccc(Oc3ccccc3)cc2)C1 (stereo not drawn)	0%	0.71	0.4	1.7	0.0	4.5	x
CCCCN(C)CCNC(=O)CCn1nc(-c2ccc(Cl)cc2)ccc1=O	0%	0.65	1.2	0.1	1.9	u	x
CCN(C(=O)c1cnc(NC(C)C)cc1C(F)(F)F)c1ccc(Cl)cc1Cl	-9%	0.69	-4.8	-15	-2.2	-1.5	i

Entries listed so far that have a Cl atom, in the order listed:
SMILES	Vif A3G	E coli growth	MLL AF4-AF9 inh	UCH37 inh	HNF4A DNA FP	RanGTP-Impb inh	FGF22 binding
CN(CC(=O)Nc1ccc(Cl)c(C(F)(F)F)c1)C(=O)CCc1nc2ccccc2c(=O)[nH]1	-10%	0.66	-2.3	1.3	0.9	x	i
Cc1c(C)n(Cc2ccc(Cl)cc2)c2ccc(C(=O)NCCN3CCOCC3)cc12	x	0.63	18	0.9	-3.2	0.4	i
CCC(C)c1ccc(NC(=S)NCCn2cc(Cl)cn2)cc1 (stereo not drawn)	4%	0.67	2.8	3.3	-3.5	-5.2	i
CCCCN(C)CCNC(=O)CCn1nc(-c2ccc(Cl)cc2)ccc1=O	0%	0.65	1.2	0.1	1.9	u	x
CCN(C(=O)c1cnc(NC(C)C)cc1C(F)(F)F)c1ccc(Cl)cc1Cl	-9%	0.69	-4.8	-15	-2.2	-1.5	i

(further entries)
SMILES	Vif A3G	E coli growth	MLL AF4-AF9 inh	UCH37 inh	HNF4A DNA FP	RanGTP-Impb inh	FGF22 binding
CCCCCCCSc1nnc(N)s1	-1%	0.6	-4.7	2.9	4.0	-0.9	i
CCN(CC)C(=O)Cn1cc(S(=O)(=O)CC(=O)Nc2ccc(C(N)=O)cc2)c2ccccc21	x	0.68	-12	4.1	2.5	-2.8	i
Cc1ccc(-c2nc(CN(C)Cc3cccc4cnccc34)c(C)o2)s1	0%	0.7	6.7	1.6	2.9	0.0	i
CC(=O)N=C1SC2CS(=O)(=O)CC2N1c1ccc(-c2nc3ccc(C)cc3s2)cc1 (stereo not drawn)	x	0.72	x	-80	x	6.1	x
CCn1c(CC(=O)Nc2ccccc2)nnc1SCC(=O)NC1=NCCS1	x	0.71	-0.7	3.9	3.1	-1.6	i
COC(=O)c1cc(C)ccc1OCc1ccc([N+](=O)[O-])cc1	u	0.66	-6.4	1.8	3.1	-1.4	i
Cc1ccc(NC(=O)C/C(N)=N/OC(=O)Nc2cccc(C)c2)cc1	-4%	0.67	-3.9	-1.6	-0.8	x	i
COc1ccc(CCN2CC(C(=O)OC(C)C(=O)Nc3ccc(NC(C)=O)cc3)CC2=O)cc1OC (stereo not drawn)	x	0.71	1.5	2.2	-1.4	x	i
O=C(O)Cc1csc(Nc2cccc(Cl)c2)n1	-2%	0.66	x	1.7	2.8	7.5	x
O=c1nc(N/N=C/c2ccco2)cn[nH]1	13%	x	-1.9	x	-0.1	2.8	i
COc1ccc(CC(=O)Nc2cccc(-c3ccc4nnc(C)n4n3)c2)cc1OC	4%	0.65	4.5	4.8	4.2	-0.5	x
CC(Oc1cccc(Cl)c1)C(=O)Nc1nc(-c2ccccn2)cs1 (stereo not drawn)	x	0.68	-1.3	1.8	5.8	-1.8	i
COc1cc(OC)c2ccc(=O)oc2c1C(CC(=O)N1CCCC1)c1ccc2c(c1)OCO2 (stereo not drawn)	x	0.63	-46	-6.3	-16	-0.9	i
CCOC(=O)C1=C(c2ccccc2)OC(N)=C(C#N)C1c1ccc(Cl)s1 (stereo not drawn)	12%	0.69	x	-0.7	0.1	8.4	x
Cc1cccc(N=C2NC(=O)/C(=C3/C(=O)N(C)c4ccccc43)S2)c1C	4%	0.72	x	3.7	-3.3	4.8	x
CN(Cc1ccco1)S(=O)(=O)c1nnc(NC(=O)c2cccc(Cl)c2)s1	u	x	-14	x	-3.5	9.5	i
O=C(Nc1ccc2c(c1)OCCO2)NC1CCCCC1	-2%	0.7	x	2.9	-3.5	2.4	x
CCCc1ccc(OCCNC(=O)c2ccco2)cc1	1%	0.7	2.0	5.2	2.1	1.7	i
Cc1ccc2[nH]c(=O)c(CN(Cc3ccco3)C(=O)c3cccs3)cc2c1	22%	0.74	x	-7.5	x	0.2	x
CC(=O)N1CCN(c2ccc(NCc3ccc(C)s3)cc2)CC1	3.1µM*	0.73	27*	-0.1	-0.6	-6.1	i
O=[N+]([O-])c1ccc2nn(Cc3ccccc3)cc2c1	-2%	0.64	-4.4	3.1	5.0	3.2	i
Cc1ccccc1OCCn1cc(/C(N)=N/O)c2ccccc21	10%	0.63	1.6	2.3	-1.6	6.3	i
CN(C(=O)c1cccc(NC(=O)Cc2cccc(NC(=O)C3CCCN(C(=O)C4CCCCC4)C3)c2)c1)C1CC1 (stereo not drawn)	-3%	0.69	-2.6	2.9	0.6	x	i
Cc1csc(=O)n1CC(=O)OCC(=O)Nc1ccccc1C(C)C	15%	0.67	-1.9	0.6	0.3	x	i
COc1cc(C(=O)OCC(=O)N2CCNC2=O)cc(Cl)c1OC	-6%	0.71	-0.5	2.6	-1.2	x	i
COc1cccc(C(O)c2nc(-c3cccc4cccnc34)cs2)c1 (stereo not drawn)	x	x	3.6	x	4.7	x	i
CC1CCCCN1C(=O)c1cc(S(=O)(=O)N2CCCCC2)c[nH]1 (stereo not drawn)	x	0.71	-1.3	7.7	4.8	2.2	i
O=C(O)CN1C(=O)SC(Nc2ccccc2C(=O)O)C1=O (stereo not drawn)	4%	0.68	x	-2.1	0.1	2.3	x
CCCc1c(C(=O)N/N=C(\CC)c2ccccc2)nnn1-c1nonc1N	-8%	x	-0.8	x	2.8	x	i
N#Cc1nc(-c2ccccc2F)oc1NC1CCCCC1	-6%	0.7	2.8	-43	0.8	0.8	i
COc1ccccc1NC(=O)CSc1nnnn1Cc1ccccc1	-7%	0.62	-6.1	1.1	0.5	u	i
COc1ccc(-c2nnc(NC(=O)c3cc(Cl)ccc3Cl)o2)cc1	2%	0.74	5.6	1.8	4.1	3.6	i
O=C(c1ccc(-n2cccc2)cc1)N1CCOCC1	5%	0.72	x	1.0	1.5	4.9	x
O=Cc1ccc(OCc2ccc3c(c2)OCO3)cc1	x	0.7	0.7	1.8	1.1	1.0	i
CCOC(=O)N1CCN(C(=O)Cc2ccc(C)cc2)CC1	-3%	0.67	x	1.0	1.4	-3.3	x
O=C(O)c1[nH]c2ccc([N+](=O)[O-])cc2c1-c1ccccc1	4%	0.69	-12	7.1	0.3	2.6	i
N/C(=N\OC(=O)COc1ccc2ccccc2c1)c1ccccn1	14%	0.67	x	3.3	-0.6	-3.6	x
COc1c2c(cc3oc(=O)c4c5ccc(O)cc5oc4c13)OC(C)(C)CC2	x	0.81	-9.6	-38	-4.7	-7.1	i
COCCN1C(=O)C(O)=C(C(C)=O)C1c1ccc(OC)c(OC)c1 (stereo not drawn)	3%	0.69	x	2.7	1.5	3.2	x
COC(=O)Cc1c(C)[nH]n(-c2cc(Cl)cc(Cl)c2)c1=O	4%	0.68	-2.6	3.3	-1.5	-1.1	i
O=C(NCCc1cccs1)C(c1ccccc1)c1ccccc1	-4%	0.71	-0.9	5.2	0.4	-0.6	i
Cc1ccc(CN(C)C(=O)CC2C(=O)NCCN2CC2CCCCC2)cc1 (stereo not drawn)	x	0.66	1.7	-21	4.1	3.9	i
COc1cccc(N2CCN(c3cnc4ccccc4n3)CC2)c1	-8%	0.63	-0.6	-4.2	-0.5	-0.9	i
COc1cc(Cl)cc(C#N)c1OCC(=O)O	-1%	0.69	x	0.7	-1.9	-1.9	x
CCCCN1C(=O)c2ccc(C(=O)OCC(=O)N3CCN(c4ccccc4)CC3)cc2C1=O	-4%	0.68	-1.5	3.1	-0.4	x	i
COc1ccc(Cn2c(-c3ccc(OC)cc3)n[nH]c2=S)cc1	6%	0.66	-2.7	4.6	-2.9	-1.7	i
O=C(Nc1ccc(NC(=O)c2ccc3c(c2)OCO3)cc1)c1cccc(Cl)c1	-8%	0.71	7.3	-0.3	3.1	x	i
Cc1cc([N+](=O)[O-])nn1Cc1ccc(C(=O)N/N=C/c2ccc(F)cc2)cc1	16%	x	0.9	x	0.2	-0.8	i
O=C1NC(c2cc(Cl)cc([N+](=O)[O-])c2O)Nc2ccccc21 (stereo not drawn)	1%	0.65	5.4	12	3.1	2.1	i
CCCCNC(=O)CC1S/C(=N/N=C/c2ccc(OC)cc2)NC1=O (stereo not drawn)	-10%	x	-0.5	x	0.4	-3.6	i
C/C(=C\c1ccco1)CN1CCC(N2CCC(C(=O)N3CCOCC3)CC2)CC1	6%	0.65	11	2.5	7.4	4.3	i
OC[C@@H](O)[C@@H](O)[C@H](O)[C@@H](O)CO	x	0.67	-0.7	2.5	4.0	-2.8	i
O=C(NC(NC1CCS(=O)(=O)C1)C(=O)c1cccs1)c1ccccc1 (stereo not drawn)	5%	0.67	x	2.3	x	6.2	x
Cc1onc(-c2c(Cl)cccc2Cl)c1C(=O)N1CCc2ccccc2C1	-1%	0.75	x	0.9	0.3	-3.4	x
O=C(NCCCn1ccnc1)/C(=C\c1cccs1)NC(=O)c1cccs1	-8%	0.66	-0.7	4.9	-1.8	6.1	x
Cc1nc2c(C(=O)NCc3cccs3)cnn2c(C)c1Cc1ccc(F)cc1	x	0.7	-2.4	-52	x	2.4	i
Cc1ccc(SCC(=O)OCC(=O)N(C)CC(=O)Nc2ccccc2Cl)cc1	x	x	-7.7	x	-1.6	3.8	x
Brc1ccc2nc(-c3ccncc3)c(NC3CCCC3)n2c1	-7%	0.67	-0.8	-27	-1.9	3.1	i
COC(=O)c1[nH]c2ccc(C)cc2c1NC(=O)NC1CCCCC1	1%	0.8	x	-9.2	1.2	0.4	x
